Assay outcomes (PubChem)
HNF4A DNA FP – change in binding of human HNF4A to DNA, primary screen, biochemical, fluorescence polarization, FITC-DNA; 1 h; AID 1224865, 2016; Hepatocyte nuclear factor 4-alpha (Homo sapiens), P41235; activity change, % at 10 µM; hit rate 0.3% among 360,000; in the data active = activity change above about 30%, passing the limit was not always enough;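 also: controls were the assay level and a saturating level of protein; the project sought stronger binding though the title names inhibitors; some compounds called inactive have numbers as strong as hits; positive values seem to mean higher polarization but the record does not say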
ALR H2O2 inh – inhibitors of human ALR sulfhydryl oxidase, primary screen, biochemical, H2O2 detection, HRP-luminol luminescence, single point; FAD-linked sulfhydryl oxidase ALR (Homo sapiens), P55789; purified ALR, DTT oxidation; inhibition, % (test concentration not listed); hit rate 3.8% among 290,000;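 active = mean and each replicate at 75% or more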;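 also: stock transfer was 7.5 nL into about 7.5 µL; 0% = neutral wells and 100% = wells with inactivated enzyme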
Target sequence (P55789 whole entry, looked up): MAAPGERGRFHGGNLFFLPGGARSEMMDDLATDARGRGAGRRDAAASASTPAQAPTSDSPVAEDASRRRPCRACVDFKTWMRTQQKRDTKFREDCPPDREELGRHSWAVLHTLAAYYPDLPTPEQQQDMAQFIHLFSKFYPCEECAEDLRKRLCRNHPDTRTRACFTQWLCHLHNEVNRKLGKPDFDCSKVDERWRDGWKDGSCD
B2AR ag – beta2AR agonists driving receptor internalization, primary screen, cell-based, FAP fluorogen, flow cytometry; hit rate 0.43% among 340,000; Am2.2-beta2AR cells; reference of the scale not given here; response, % (test concentration not listed);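 active = response above a set limit, near 3 SD of response in nonfluorescent compounds, cut at about 42% in these data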;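 also: stock transfer was 100 nL into about 11 µL; a reference agonist was the positive control; negative values mostly stem from fluorescent compounds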
FGF22 binding – binders of human FGF22 protein, primary screen, FGF22 synaptogenesis inhibitor project, biophysical, thermal shift, single point | Fibroblast growth factor 22 (Homo sapiens), Q9HCT0 | recombinant FGF22 thermal shift, SYPRO orange fluorescence; percent of sucrose octasulfate shift, DMSO zero | calls only at 9.99 µM | hit rate 1.5% among 340,000 | AID 651658, 2012;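 active = melting point raised past a set limit in the mean and every replicate; three in four hits are not shown here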
Target sequence (Q9HCT0 whole entry, looked up): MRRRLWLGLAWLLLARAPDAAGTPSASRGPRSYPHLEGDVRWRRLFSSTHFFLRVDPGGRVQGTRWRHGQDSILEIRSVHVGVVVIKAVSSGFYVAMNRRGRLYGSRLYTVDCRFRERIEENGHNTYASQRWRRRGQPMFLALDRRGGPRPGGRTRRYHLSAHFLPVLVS
UCH37 DUB inh – inhibitors of human UCH37 deubiquitinase, primary screen, biochemical, Ub-AMC cleavage, fluorescence | inhibition, % (concentration not given with the values) | purified proteasome/UCH37 | Ubiquitin carboxyl-terminal hydrolase isozyme L5 (Homo sapiens), Q9Y5K5 | hit rate 0.33% among 330,000;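 active = mean of two replicates above 20%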;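 also: 0% = compound-free wells with enzyme and 100% = wells lacking proteasome; stock transfer was 100 nL into about 20 µL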
Target sequence (Q9Y5K5 whole entry, looked up): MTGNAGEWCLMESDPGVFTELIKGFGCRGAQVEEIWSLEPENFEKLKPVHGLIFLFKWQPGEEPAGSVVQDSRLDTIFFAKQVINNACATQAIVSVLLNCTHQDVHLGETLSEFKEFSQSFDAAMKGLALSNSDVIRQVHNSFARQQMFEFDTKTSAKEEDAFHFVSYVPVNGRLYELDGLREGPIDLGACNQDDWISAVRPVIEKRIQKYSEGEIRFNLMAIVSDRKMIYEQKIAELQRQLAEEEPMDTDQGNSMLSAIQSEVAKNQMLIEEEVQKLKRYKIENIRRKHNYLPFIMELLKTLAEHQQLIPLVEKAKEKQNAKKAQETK
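Reagent: Ub-AMC substrate; assay system: Proteasome-associated human UCH37 deubiquitinase; controls: no-proteasome and no-compound wells; read-out: % inhibition of Ub-AMC cleavage fluorescence; timing: 30 min preincubation with enzyme, 25 min cleavage at room temperature; signal: AMC fluorescence from Ub-AMC cleavage, excitation 355 nm, emission 460 nm; buffer or medium: Tris-HCl pH 7.4 plus ovalbumin, ATP-MgCl2, DTT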
rRNA inh HTS – reduced GFP signal of wild-type E. coli, primary screen, bacterial rRNA inhibitor project, GFP/RFP fluorescence, OD600, single point; GFP signal change (wild-type ribosome), % (test concentration not listed); AID 720706, 2013; E. coli WT GFP vs humanized-ribosome RFP mutants, 24 h; hits give low values; DMSO median 0, no signal -100; hit rate 1.6% among 350,000;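 active = significant combined selectivity score with lowered wild-type GFP, culture density cut under 30%, mutant RFP and density less affected; inactive = any of these conditions unmet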; also: one replicate is shown; some compounds called inactive have numbers as strong as hits
E coli growth – E. coli growth inhibition, primary screen, OD600; hit rate 0.21% among 330,000; Escherichia coli growth, 23 h; hits give low values; OD600 absorbance (test concentration not listed);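 active = OD600 absorbance below the run mean of sample wells minus 3.6 SD, in any replicate, cut at about 0.56 in these data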;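 also: stock transfer was 300 nL into about 60 µL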
rRNA inh HTS OD600 – also measured in rRNA inh HTS; calls as there; OD600 change, %; measured here: OD600 growth;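 optical density of the mix in the first replicate; 0 = DMSO median and -100 = no signal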
rRNA inh HTS RFP – recorded beside rRNA inh HTS, whose call it bears; RFP signal change, %; measured here: RFP humanized mutant strains;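 first replicate; 0 = DMSO median and -100 = no signal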
* marks the source's active call; other numbers are inactive results; i = inactive; . = not tested or not shown; & = joins results of further samples.

SMILES	HNF4A DNA FP	ALR H2O2 inh	B2AR ag	FGF22 binding	UCH37 DUB inh	rRNA inh HTS	rRNA inh HTS OD600	rRNA inh HTS RFP	E coli growth
O=C(Nc1ccccc1)c1ccc(S(=O)(=O)NCc2cccnc2)cc1	0.6	3	1	i	5.3	-5	4	-0.3	0.66
Cc1ccc(Cl)cc1NC(=O)COC(=O)c1ccccc1O	0.5	-9	-12	i	-17	5	1	-1.8	0.69
COc1ccc(C(C(=O)NCC2CCCO2)N(C(=O)c2snc(C(N)=O)c2N)c2ccccc2)cc1OC (stereo not drawn)	1.9	.	-2	i	-154	3	-2	1.3	0.68
Cc1cc(C)c(-c2noc(C(=O)OC(C)(C)C)c2C(=O)OC(C)(C)C)c(C)c1	7.4	1	5	.	-0.2	.	.	.	.
Cc1ccc(S(=O)(=O)N(C)c2ccc(OCC(=O)Nc3nc(-c4ccccc4)cs3)cc2)cc1	2.7	-1	3	.	-2.5	.	.	.	0.73
Cc1ccc(/C(N)=N/OC(=O)CCC2CCCC2)cc1	-1.2	4	0	i	2.2	6	6	-2.7	0.67
CCc1cc(=O)oc2c(C)c(OCC(=O)N3CCC[C@@H]3C(=O)O)ccc12	2.5	-13	2	i	-43	.	.	.	0.72
CCc1nc2ccc(C(=O)NCCC(C)C)cn2c1N(CC)CCN(C)C	2.1	.	.	i	.	5	9	5.5	.
C[C@H]1CN([C@@H](C)CO)C(=O)CCCn2nncc2CO[C@H]1CN(C)C(=O)C1CCCCC1	-1.1	.	.	i	.	2&-2	4&0	1.4&-1.5	.
O=C(c1ccc(Br)cc1)C1CCc2occc2C1=O (stereo not drawn)	-4.8	27	-4	.	-2.4	.	.	.	0.65
COC(=O)/C(=C\Nc1ccc(OC)cc1)NC(=O)c1ccc(Cl)cc1Cl	-1.3	-46	-6	.	1.4	.	.	.	0.76
Cc1nnc(SCc2cnc(-c3ccccc3)o2)[nH]c1=O	-1.2	99*	6	.	0.6	.	.	.	0.68
O=C(Cc1ccccc1)Nc1ccccc1C(=O)N1CCCCCC1	1.0	-8	-3	.	4.8	3	-4	0.4	0.68
Cc1nc2ccccc2c(=O)n1NC(=O)c1ccco1	0.3	-3	-11	.	1.8	.	.	.	0.73
COc1ccc(CNS(=O)(=O)c2ccc(-c3ccc(=O)[nH]n3)o2)cc1	1.1	-14	-2	i	3.9	1	6	-0.5	0.73
Cc1onc(-c2ccccc2Cl)c1C(=O)NC(=S)Nc1ccc(C(C)(C)C)cc1	2.5	-13	0	i	5.3	3	10	-0.4	0.68

Three of the entries above in order of their number in rRNA inh HTS OD600, low to high.
SMILES	rRNA inh HTS OD600
O=C(Cc1ccccc1)Nc1ccccc1C(=O)N1CCCCCC1	-4
COc1ccc(CNS(=O)(=O)c2ccc(-c3ccc(=O)[nH]n3)o2)cc1	6
Cc1onc(-c2ccccc2Cl)c1C(=O)NC(=S)Nc1ccc(C(C)(C)C)cc1	10

New compounds follow:
SMILES	HNF4A DNA FP	ALR H2O2 inh	B2AR ag	FGF22 binding	UCH37 DUB inh	rRNA inh HTS	rRNA inh HTS OD600	rRNA inh HTS RFP	E coli growth
CC(C)(C)c1cc(NCc2ccccn2)n2ncc(-c3ccc(Cl)cc3)c2n1	-1.2	-4	2	i	i	6	6	3.3	0.65
Cc1cccc(NC(=O)COC(=O)C2C3CC4OC(=O)C2C4C3)c1C (stereo not drawn)	-0.8	5	7	i	-0.3	11	9	2.0	0.62
CC(OC(=O)CCOc1ccccc1)C(=O)NC1CC1 (stereo not drawn)	2.8	-8	0	i	1.1	19	21	-0.3	0.7
COc1ccc(NC(=S)N2CCN(C(=O)C3CCCO3)CC2)c(OC)c1 (stereo not drawn)	-0.5	-12	-6	i	4.2	13	4	1.1	0.69
O=C(CCCC1=NS(=O)(=O)c2ccccc2N1)N1CCN(c2ccc([N+](=O)[O-])cc2)CC1	5.8	-2	-4	i	5.1	-9	-7	-1.9	0.68
CC1(C)CC(=O)C(C(C2=C(O)CC(C)(C)CC2=O)c2ccco2)C(=O)C1 (stereo not drawn)	-4.4	17	8	.	1.6	.	.	.	0.7
Cc1c(NC(=O)c2cc(-c3ccc4c(c3)OCO4)on2)c(=O)n(-c2ccccc2)n1C	-9.0	0	-3	.	4.6	.	.	.	0.75
O=C(CSc1nc2cc(Cl)ccc2o1)Nc1ccc(N2CCOCC2)cc1	-0.6	.	5	i	8.5	-13	-4	0.3	0.67

Reprinted at random: three records from the list
SMILES	HNF4A DNA FP	ALR H2O2 inh	B2AR ag	FGF22 binding	UCH37 DUB inh	rRNA inh HTS	rRNA inh HTS OD600	rRNA inh HTS RFP	E coli growth
CC(C)(C)c1cc(NCc2ccccn2)n2ncc(-c3ccc(Cl)cc3)c2n1	-1.2	-4	2	i	i	6	6	3.3	0.65
O=C(CCCC1=NS(=O)(=O)c2ccccc2N1)N1CCN(c2ccc([N+](=O)[O-])cc2)CC1	5.8	-2	-4	i	5.1	-9	-7	-1.9	0.68
CC(OC(=O)CCOc1ccccc1)C(=O)NC1CC1 (stereo not drawn)	2.8	-8	0	i	1.1	19	21	-0.3	0.7

More records follow:
SMILES	HNF4A DNA FP	ALR H2O2 inh	B2AR ag	FGF22 binding	UCH37 DUB inh	rRNA inh HTS	rRNA inh HTS OD600	rRNA inh HTS RFP	E coli growth
Cc1ccc(S(=O)(=O)N(C)C)cc1NC(=O)C(C)OC(=O)C1CCCC1 (stereo not drawn)	0.6	5	-14	i	0.0	5	9	-0.6	0.69
O=C(C=C1CCN(c2ncc(C(F)(F)F)cc2Cl)CC1)NNC(=O)Nc1ccccc1	0.4	-6	0	.	2.1	.	.	.	0.64
CC(C)(C)c1csc(NC(=O)Cc2ccc(S(=O)(=O)N3CCOCC3)s2)n1	7.3	.	18	i	2.7	-10	-27	3.3	0.68
O=C(c1ccc(NS(=O)(=O)c2ccc(F)cc2)cc1)N1CCOCC1	-1.7	-6	9	i	1.5	5	7	-0.1	0.68
O=C1c2ccccc2C(=O)c2c1ccc(O)c2O	-44	.	19	i	.	.	.	.	.
C[C@@H]1CN([C@H](C)CO)C(=O)c2cc(NS(=O)(=O)c3cccs3)ccc2O[C@H]1CN(C)Cc1ccccc1	-0.8	0	-5	i	3.5	3&20	10&21	-0.4&-4.3	0.78
O=C(COC(=O)/C=C/c1cccc(C(F)(F)F)c1)NC(=O)NCc1ccco1	-0.3	-4	-9	i	2.6	-4	-9	-3.4	0.69
COc1ccc(CNc2nc3nc(C)c(Cl)c(C)n3n2)cc1OC	3.2	-4	1	.	3.3	.	.	.	0.72
Cc1c(NC(=O)CSc2nnnn2-c2ccc(C(=O)O)cc2)c(=O)n(-c2ccccc2)n1C	0.6	2	-9	i	3.0	13	7	-0.7	0.72
COc1ccc2cc(C#N)c(N3CCN(C(=O)c4ccccc4C)CC3)nc2c1	-0.3	-6	2	i	-344	-31	-46	-2.8	0.72
COc1ccc(-n2c(=O)[nH]c3cc(C(=O)NCCc4ccc(OC)c(OC)c4)ccc3c2=O)c(OC)c1	2.9	-19	3	i	1.4	-6	1	0.5	0.65
COC(=O)Cc1ccc(NC(=S)NCCSc2ccc(C)cc2)cc1	-0.2	-7	1	i	3.8	-38	-62	12	0.65
COc1ccc(NC(=O)CN(C)C(=O)CSCC(=O)Nc2ccc(C)cc2)cc1	3.5	.	-2	i	.	6	9	1.6	.
O=C(CNC(=O)c1cccs1)N=Nc1c(O)[nH]c2ccc(Br)cc12	-2.4	3	0	i	1.5	3	8	1.0	0.61
Cn1c(=O)c2c(-c3cccc(Br)c3)c(C#N)c(N)nc2n(C)c1=O	0.8	.	-5	i	8.7	3	-1	-2.3	0.64
CSCCC(NC(=O)c1ccco1)C(=O)NCCc1ccc(Cl)cc1 (stereo not drawn)	0.8	.	-3	i	3.6	4	2	4.0	0.66
Cc1nn(C)c(C(=O)N2CCc3ccccc32)c1Cl	0.4	-7	-4	.	4.5	.	.	.	0.66
CC1(C(=O)NS(=O)(=O)c2ccc(Cl)s2)CCN1C(=O)CCc1ccccc1 (stereo not drawn)	-5.4	.	.	i	.	7	16	0.8	.
c1ccc(Oc2cccc(OCCCn3cncn3)c2)cc1	-1.7	8	-2	.	1.7	.	.	.	0.7
Cc1ccc(NC2(C#N)C(=O)Nc3ccccc32)cc1 (stereo not drawn)	-2.2	98*	-2	.	-0.1	.	.	.	.
CCc1ccccc1NC(=O)CNC(=O)c1ccc(-n2cncn2)c([N+](=O)[O-])c1	-1.7	-11	-1	i	2.7	4	16	3.2	0.65
O=C(NC(=S)Nc1nc2c(s1)CCCC2)c1ccccc1	-3.5	.	-13	i	2.0	3	24	11	0.72
CCc1ccc(CN2CCCC(CNC(=O)c3cccc(OC)c3OC)C2)cc1 (stereo not drawn)	0.0	.	7	i	0.4	2	0	1.8	0.69
CCc1nc(N2CCN(C(=O)CCl)CC2)c2c3c(sc2n1)CC(C)CC3 (stereo not drawn)	-1.2	35	3	i	.	-3	-7	2.9	.
Nc1ccccc1C(=O)NC1CCCNC1=O (stereo not drawn)	-3.6	-3	-2	i	-115	16	18	5.1	0.6
O=C(C[C@H]1C/C=C\C[C@H](NC(=O)OCC2c3ccccc3-c3ccccc32)C(=O)O[C@H](c2ccccc2)CNC1=O)N[C@H](CO)Cc1ccccc1	2.5	12	-11	.	0.9	.	.	.	.
O=C(Nc1sc2c(c1C(=O)O)CCCCC2)c1ccco1	-0.1	60	9	.	14	.	.	.	0.7
CCOC(=O)C1CCCN(c2c(N3CCC(N4CCCCC4)CC3)c(=O)c2=O)C1 (stereo not drawn)	-2.3	1	7	i	6.4	4	5	-7.3	0.68
Cc1nnc(N2CCCCC2)c2ccccc12	-2.3	-8	3	.	2.7	.	.	.	0.69
O=C(COC(=O)c1cc(=O)c2ccccc2o1)Nc1cc(Cl)ccc1Cl	2.0	1	8	i	1.5	5	8	-0.5	0.68
OCCC1CN(Cc2ccc3nonc3c2)CCN1Cc1ccsc1 (stereo not drawn)	-2.0	8	1	i	3.6	8	10	16	0.67
Cn1c(=O)cc(OCC(=O)N2CCC(N3CCCCC3)CC2)c2ccccc21	-0.1	.	-3	i	3.0	8	16	0.0	0.7
Cc1ccc2sc(=O)[nH]c2c1	0.9	4	9	i	5.6	5	-8	-1.8	0.64
Cc1ccc2nc(C(F)C(F)(F)F)[nH]c2c1 (stereo not drawn)	-0.5	4	0	i	-7.1	8	2	0.9	0.65
CC1CCCC(NC(=S)NC(=O)c2ccco2)C1C (stereo not drawn)	2.3	-1	-5	i	1.1	.	.	.	0.65
O=[N+]([O-])c1ccc(S(=O)(=O)Nc2cccc(-c3ccc(N4CCOCC4)nn3)c2)cc1	-1.1	-34	3	i	3.2	11	-1	0.9	0.62
CCc1nc2ccc(C(=O)NCCCn3ccnc3)cn2c1N(C)Cc1cc2ccccc2s1	0.8	.	.	i	.	-31	-37	-8.2	.

An excerpt; count on the stated rates, not on these rows.
